Compound activity as filed in PubChem BioAssay.
Mtb growth: M. tuberculosis H37Rv growth inhibitors, H37Rv strain (AID 1626) | inhibition, % at 10 µM; hits with a dose series show IC50 in µM | M. tuberculosis H37Rv growth inhibition; higher % means a stronger effect | hit rate 0.95% among 220,000;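 active means confirmed in a dose series; inconclusive means inhibition above 80% but not taken into the dose series; inactive means below 80% or under 30% at every dose of the series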;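 further: bacteria incubated seven days before Alamar blue readout; 0% = bacteria only wells and 100% = bacteria with antibiotic wells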
Mtb betalactam: beta-lactam sensitization of Mtb H37Rv; hit rate 0.27% among 330,000; M. tuberculosis H37Rv growth with meropenem, percent inhibition; hits of this screen are not shown here; inhibition, % at 25 µM;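 active means about 74% or more and at least 40 points above the plate without the antibiotic, then above 30% in a dose series; inconclusive means first-round hits that could not be retested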;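 further: growth measured after seven days incubation then overnight dye step; 0% = bacteria only wells and 100% = bacteria with antibiotic; twin plates without the antibiotic show which effects depend on it; some results filed as inactive read as strong as hits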
YopH inh: YopH (Yersinia) phosphatase inhibition. fluorescence Ex485/Em525. inhibition, %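 (about 10 µM by stock and volumes)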. hit rate 0.16% among 140,000;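 active means inhibition of 50% or more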;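 further: controls were vehicle for no effect and minimum signal wells for full effect; inactives centre near -20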
RecA splice inh: blocks M. tuberculosis RecA intein splicing; cell-free RecA intein splicing, fluorescence; inhibition, %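 (about 9 µM by stock and volumes)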; hit rate 0.75% among 290,000; AID 2221; in the data active means inhibition above about 30%; inconclusive means no clear call, values can overlap the other calls;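 further: 0% = vehicle wells and 100% = reference inhibitor control wells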
Target sequence (P9WHJ3 whole entry, looked up, canonical isoform): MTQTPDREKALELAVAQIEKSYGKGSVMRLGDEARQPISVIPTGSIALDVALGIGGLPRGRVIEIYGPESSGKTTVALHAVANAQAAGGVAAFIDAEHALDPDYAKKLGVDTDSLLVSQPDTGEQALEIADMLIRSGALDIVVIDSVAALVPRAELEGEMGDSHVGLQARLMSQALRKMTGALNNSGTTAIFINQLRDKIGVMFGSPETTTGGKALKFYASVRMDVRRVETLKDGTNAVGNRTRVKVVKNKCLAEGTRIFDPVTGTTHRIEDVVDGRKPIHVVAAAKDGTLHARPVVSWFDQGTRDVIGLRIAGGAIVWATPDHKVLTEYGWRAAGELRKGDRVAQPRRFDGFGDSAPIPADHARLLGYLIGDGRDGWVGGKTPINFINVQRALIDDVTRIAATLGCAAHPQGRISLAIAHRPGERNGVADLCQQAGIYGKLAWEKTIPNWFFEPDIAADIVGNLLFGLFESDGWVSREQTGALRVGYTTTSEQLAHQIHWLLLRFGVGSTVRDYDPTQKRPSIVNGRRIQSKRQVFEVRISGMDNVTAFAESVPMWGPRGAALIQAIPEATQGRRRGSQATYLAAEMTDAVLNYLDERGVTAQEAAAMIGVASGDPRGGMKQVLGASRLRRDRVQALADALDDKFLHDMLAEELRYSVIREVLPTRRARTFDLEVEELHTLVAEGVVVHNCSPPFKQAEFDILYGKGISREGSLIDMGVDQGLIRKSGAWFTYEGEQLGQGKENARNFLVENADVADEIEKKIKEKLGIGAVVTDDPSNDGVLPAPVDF
Arbovirus anti: antivirals against arbovirus infection; arbovirus infection cell-based antiviral screen; inhibition, % at 10 µM; hit rate 0.37% among 200,000;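 active means inhibition from about 30%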;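 further: bluetongue infection of BSR cells; cell survival read as ATP light after 72 h; 0% = infected wells without compound and 100% = uninfected wells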
Arbovirus anti repeat: recorded beside Arbovirus anti, whose call it bears; inhibition, %; measured here: 10K subset replicate screen; many hits read low in the repeat;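 first of two repeat runs on a subset; 0% = infected and 100% = uninfected wells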
* = called active by the depositor; ? = inconclusive; · = no result given; & = joins results of further samples.

SMILES	Mtb growth	Mtb betalactam	YopH inh	RecA splice inh	Arbovirus anti	others
COc1cccc2cc(C(N)=O)oc12	8%	-9	·	-1.9	3
Cc1cc(N)c2cc(NC(=O)/C=C/c3ccccc3Cl)ccc2n1	1.7µM*	98	·	-2.9	·
CC(=O)Nc1ccccc1OCc1cnc(Cl)s1	3%	-4	·	-0.1	-3
CCc1ccc(CNCCSc2nnnn2C)cc1	-1%	-3	4	-3.0	-6
CCOC(=O)N(CC)c1ccc(C(O)(C(=O)OC)C(F)(F)F)cc1 (stereo not drawn)	-7%	-1	-20	-5.3	10
O=C(NCCc1cccs1)C1CC(c2ccccc2F)=NO1 (stereo not drawn)	0%	-5	·	0.9	·
O=C(CN1CCN(c2nc(-c3ccccc3)cs2)CC1)NCc1ccc2c(c1)OCO2	78%	40	-24	11	-30
O=C(/C=C/c1ccc([N+](=O)[O-])cc1)N(c1ccccn1)C1CCCCC1	0%	5	·	-4.8	7
C[C@H](C(=O)CC(=O)OC(C)(C)C)[C@H](O)c1ccccc1	·	-12	·	-0.1	·
COc1cc2c(cc1OC)C(c1ccc(O)cc1)NCC2 (stereo not drawn)	·	1	·	-1.3	·
Cc1cccc(N(CC(=O)NC(C)(C)C)C(=O)CNC(=O)c2cccs2)c1	11%	-4	·	0.0	3
CCOc1ccc(C(=O)CCC(=O)Nc2ncccc2O)cc1	·	1	·	0.2	·
Cc1ccc(NC(=O)Nc2nc(-c3ccc(C)s3)cs2)cc1	-3%	42	-24	6.7	18
COCCNC(=O)C(c1ccccc1F)N(C(=O)C(=O)NC1CCCC1)C1CCCCC1 (stereo not drawn)	0%	-5	·	2.5	-5
COCCCNC(=O)CCCn1c(=O)[nH]c2ccccc2c1=O	-12%	-1	-7	0.0	-2
COC(=O)c1ccc2c(=O)n(CC3CCCO3)c(SCC(=O)Nc3ccccc3Cl)nc2c1 (stereo not drawn)	-3%	11	4	2.5	-26
CC1CCc2sc(C(=O)NNC(=S)NC3CC3)cc2C1 (stereo not drawn)	·	4	·	2.9	·
Cc1cc(C)n2nc(C(=O)OCC(=O)c3ccc(F)cc3)nc2n1	·	0	·	2.0	·
O=C(CCCCC(=O)NNC(=O)COc1ccccc1)NNC(=O)COc1ccccc1	·	1	·	-1.1	·
CCc1ccc(-c2cc(C(=O)N3N=C(C(F)F)CC3(O)C(F)F)c3ccccc3n2)cc1 (stereo not drawn)	27%	71	-27	0.6	-35
COc1ccc(S(=O)(=O)n2nc(-c3ccc(Cl)cc3)cc2N)cc1OC	-1%	-13	-18	8.5	5
NC(=O)c1ccccc1N(Cc1ccccc1)S(=O)(=O)c1ccccc1	2%	-10	·	0.5	7
Cc1cccc[n+]1CC(=O)Nc1ccc([N+](=O)[O-])cc1Cl	-8%	7	-44	-0.8	5
NS(=O)(=O)c1cc(C(=O)Nc2ccc3c(c2)OCCCO3)ccc1Cl	·	-1	·	-1.1	·
COc1ccc(NC(=O)CS(=O)(=O)c2ccc(F)cc2)cc1	·	-1	·	1.1	·
O=C(NCc1ccncc1)C(=O)NCC1OCCN1S(=O)(=O)c1ccc(F)cc1 (stereo not drawn)	·	-15	·	-2.4	·
COc1ccc(-c2nnn(CC(=O)NCCc3c[nH]c4ccccc34)n2)cc1OC	9%	-12	-10	0.0	-9
O=C(NCc1ccc(F)cc1)C(c1ccncc1)N(C(=O)c1csnn1)C1CC1 (stereo not drawn)	-4%	-2	-92	-0.9	1
O=C(CCC(=O)N1CCOc2ccccc21)NCCCN1CCN(Cc2ccccc2)CC1	·	-5	·	0.0	·
Cc1cccc(C(=O)NCCN(C)C)c1	-11%	-8	-27	-2.0	3
c1ccc(CCNCc2cccs2)cc1	·	-3	·	33*	·
O=C(O)C(CCCCNS(=O)(=O)c1ccc(F)cc1)NS(=O)(=O)c1ccc(F)cc1 (stereo not drawn)	·	3&-4	·	-0.5&-1.3	·
COc1ccc(-n2c(C)ccc2C)c([N+](=O)[O-])c1	2%	-9	·	6.4	-3
Cc1ccc(CNC(=O)C2c3ccccc3C(=O)N3CCc4ccccc4C23)o1 (stereo not drawn)	1%	48	19	6.5	2
CCOC(=O)c1oc2c(CN3CCCCC3C)c(O)ccc2c(=O)c1-c1ccc(OC)c(OC)c1 (stereo not drawn)	-11%	1	-9	-7.0	13
O=C(COc1ncnc2ccc(Br)cc12)Nc1ccc(N2CCOCC2)cc1	-2%	3	-24	·	0
Cc1nc(Cl)c2c(n1)NC(=O)CO2	-7%	6	·	-1.5	·
O=S(=O)(NC(=NC1CCCCC1)c1ccccc1)c1ccccc1	·	0	·	-0.2	·
COc1ccc(N=C(C)c2c(O)[nH]c(=O)[nH]c2=O)cc1	·	-6	·	-2.9	·
CCN1CCN(Cc2ccc(NC(=O)c3cc(NC(=O)C(=O)c4c[nH]c5ccccc45)cc(OC)c3)cc2C(F)(F)F)CC1	?	100	·	29	·
C=C(C)c1nc(N)nc(N)n1	-3%	-8	-28	-5.9	6
Cn1c(N)c(C(=O)CCl)c(=O)n(Cc2ccccc2)c1=O	-7%	21	-39	12	3
Cc1cc(C)c(S(=O)(=O)N2CCCC(C(=O)N3CCCC3)C2)c(C)c1 (stereo not drawn)	·	5	·	1.4	·
C=C(C)c1cccc(C(C)(C)NC(=O)N2CCC(C)CC2)c1	2%	0	-16	0.6	-10
CCOC(=O)N1CCN(C(=O)c2ccc3c(c2)NC(=O)C(N2CCOCC2)S3)CC1 (stereo not drawn)	·	-8	-42	·	10
COC(=O)c1sc(S(=O)(=O)Nc2ccc(C)c(C)c2)c(C(=O)OC)c1C	7%	6	-22	4.0	9
COc1cc(OC)cc(C(=O)Nc2nc(CC(=O)NCCc3ccccc3)cs2)c1	·	1	·	-1.4	·
CC1(OC(=O)CCc2ccccc2)C(=O)C=C2C=C(c3ccc(C#N)cc3)N(CCc3c[nH]c4ccccc34)C=C2C1=O (stereo not drawn)	4%	25	·	1.6	·
CSc1nnc(NC(=O)c2ccco2)s1	·	0	·	-0.5	·
COc1ccc(CC(=O)Oc2cc(C)[nH]c(=O)c2[N+](=O)[O-])cc1	3%	1	-28	·	-12
COc1cc(C(=O)N=c2sccn2C)c([N+](=O)[O-])cc1OC	·	5	·	0.6	·
COc1ccc(NC(=O)C2CCCN2c2nn3c(=O)cc(C)nc3s2)cc1 (stereo not drawn)	·	-5	·	0.7	·
O=C(COC(=O)c1cc([N+](=O)[O-])ccc1NCCO)NCc1cccs1	-15%	-4	·	-0.9	20
COc1ccc(S(=O)(=O)N2CCN(c3ccc(C)cc3C)CC2)cc1OC	1%	8	-30	11	24	Arbovirus anti repeat=14
O=C(N/N=C/c1cccc([N+](=O)[O-])c1)c1ccc2c(c1)OCCO2	0%	6	-32	-1.5	-1
CCCCSc1nnc2nc(C)cc(C)n12	-13%	-17	-46	·	1
COc1ccccc1C(=O)Nc1cc(-c2nn3c(C)nnc3s2)ccc1C	·	·	-14	·	-2	Arbovirus anti repeat=7
O=C(NCCCN1CCCCC1)C1CCC(CNS(=O)(=O)c2cccc3nsnc23)CC1 (stereo not drawn)	·	-4	·	2.8	·
CC(=O)[C@@H]1[C@@H](C(=O)c2ccc(F)cc2)[C@]2(C(=O)Nc3ccccc32)[C@H]2C=Cc3cc(F)ccc3N12	12%	17	·	6.2	·
Cc1nc2ccc(NC(=O)c3ccc([N+](=O)[O-])cc3)cc2[nH]1	·	-9	·	-0.3	·
Later entries.
SMILES	Mtb growth	Mtb betalactam	YopH inh	RecA splice inh	Arbovirus anti	others
Cc1ccccc1N1CC(C(=O)N2CC(C)CC(C)C2)CC1=O (stereo not drawn)	·	-10	·	-1.5	·
C#CCOC(=O)CN1C(=O)c2cccc3cccc(c23)C1=O	·	9	·	0.2	·
CCOC(=O)c1sc2nc3c(cc2c1N)COC(C)(C)C3	-8%	-4	42	·	5
CCn1cc(C(=O)NC(=S)Nc2cccc(O)c2)cn1	3%	-12	-11	1.9	6
CC(C)CCN(C(=O)CNC(=O)c1ccco1)C(C(=O)NC1CCCCC1)c1cccnc1 (stereo not drawn)	·	-5	·	-1.2	·
Cc1ccccc1CN1CCNC(=O)C1CC(=O)NCCC1=CCCCC1 (stereo not drawn)	·	-6	·	2.2	·
Cc1cc(-c2ccccc2)nc(N2CCN(c3ccccn3)CC2)n1	0%	1	-21	5.2	-1
O=C(c1cccs1)N(c1ccc(Cl)cc1)C1C=CS(=O)(=O)C1 (stereo not drawn)	2%	-2	·	-0.5	8
CC(C)=CCN1CCN(Cc2cccn2-c2ccccn2)CC1CCO (stereo not drawn)	0%	64	·	-0.8	10
COc1ccc(CNC(=O)CSc2nccn(-c3ccc(F)c(F)c3)c2=O)cc1	·	-10	·	-1.3	·
Cc1ccc(N(CC(=O)N2CCOCC2)S(C)(=O)=O)cc1C	-8%	1	-11	2.4	1
CCc1ccc(C(=O)NCc2ccc(Cl)cc2)cc1	5%	5	-2	5.3	-2
O=C1CCC(/C=C/c2ccccc2)=NN1Cc1ccccc1Cl	12%	4	-14	13	-18
COc1cc(/C=N/NC(=O)c2csc3c2CCCC3)cc(OC)c1O	-3%	-2	-29	-3.0	-5
CCNC(=S)NNC(=O)c1c(Cl)c(C)nn1C	1%	-3	-30	0.9	1
CCn1c(/C=C2\C(=O)N(C(C)C)c3ccccc32)nc2ccccc2c1=O	5%	9	·	7.9	·
CNc1nc2ccccc2n1N	-7%	2	-15	2.7	1
COc1cc(NC(=O)CN2C(=O)COc3ccc(S(=O)(=O)N4CCOCC4)cc32)cc(OC)c1	·	1	·	-0.6	·
CCN(CC)C(=O)Cn1cc(S(=O)(=O)Cc2cccc([N+](=O)[O-])c2)c2ccccc21	·	-2	·	6.0	·
O=C(CCSc1ccccc1)Nc1nccs1	3%	-1	11	·	0
COc1ccc(CCNC(=O)CSc2nc3ccsc3c(=O)n2CC2CCC(C(=O)O)CC2)cc1OC (stereo not drawn)	·	0	·	1.4	·
O=C(Cc1cccs1)N1CCC(c2nc3c(nnn3Cc3ccccc3)c(=O)[nH]2)CC1	-4%	2	-11	2.3	-3
Cc1ccc(S(=O)(=O)Nc2nc(C)cc(-n3nc(C)cc3C)n2)cc1	-6%	6	4	7.9	-1
CC(C)OCCCNC(=S)Nc1ccc2nc3n(c(=O)c2c1)CCCCC3	-4%	-1	·	0.4	0
C=CCc1cccc(C=Nc2cc(Br)ccc2O)c1O	51%	92	-17	-0.4	-9
CCN(CC)S(=O)(=O)c1ccc2c(c1)c(=O)c(C(=O)NCc1ccco1)cn2C	-1%	2	·	-1.9	-1
CC(OC(=O)c1cn(-c2ccccc2)nc1-c1cccnc1)C(N)=O (stereo not drawn)	-7%	-2	·	-2.1	2
CCOC(=O)N1CCN(C(=O)C2CCN(S(C)(=O)=O)CC2)CC1	4%	2	4	-0.7	4
CN(C)C(CNc1ccc(S(C)(=O)=O)cc1[N+](=O)[O-])Cc1ccccc1 (stereo not drawn)	·	4	·	-1.3	·
O=S(=O)(CCN1C=CC(C(F)(F)F)=NCC1)c1ccc(Cl)cc1Cl	-11%	-8	·	1.0	·
COC(=O)c1c(SCc2ccc(C#N)cc2)nc(=O)[nH]c1C	1%	-7	·	-0.6	78*
Cc1cccc(NC(=O)C(C)SCc2ccccc2)c1 (stereo not drawn)	·	0	·	3.9	·

No new results follow: three of the compounds above.
SMILES	Mtb growth	Mtb betalactam	YopH inh	RecA splice inh	Arbovirus anti	others
O=S(=O)(CCN1C=CC(C(F)(F)F)=NCC1)c1ccc(Cl)cc1Cl	-11%	-8	·	1.0	·
COC(=O)c1c(SCc2ccc(C#N)cc2)nc(=O)[nH]c1C	1%	-7	·	-0.6	78*
Cc1cccc(NC(=O)C(C)SCc2ccccc2)c1 (stereo not drawn)	·	0	·	3.9	·

Ordered by formula weight (descending): some entries from above.
SMILES	Mtb growth	Mtb betalactam	YopH inh	RecA splice inh	Arbovirus anti	others
COc1ccc(CCNC(=O)CSc2nc3ccsc3c(=O)n2CC2CCC(C(=O)O)CC2)cc1OC (stereo not drawn)	·	0	·	1.4	·
CC(C)OCCCNC(=S)Nc1ccc2nc3n(c(=O)c2c1)CCCCC3	-4%	-1	·	0.4	0
CN(C)C(CNc1ccc(S(C)(=O)=O)cc1[N+](=O)[O-])Cc1ccccc1 (stereo not drawn)	·	4	·	-1.3	·
Cc1ccc(S(=O)(=O)Nc2nc(C)cc(-n3nc(C)cc3C)n2)cc1	-6%	6	4	7.9	-1
C=CCc1cccc(C=Nc2cc(Br)ccc2O)c1O	51%	92	-17	-0.4	-9
Cc1cccc(NC(=O)C(C)SCc2ccccc2)c1 (stereo not drawn)	·	0	·	3.9	·

Some of the compounds tested; rates above refer to the full screens.
